Screens from PubChem BioAssay.
NPYLR7 ag: agonists of mosquito NPYLR7 receptor, primary screen, cell-based, Aedes aegypti, calcium fluorescence, mosquito biting behavior; Aedes aegypti neuropeptide Y-like receptor 7 (NPYLR7); HEK293T NPYLR7/Galpha15, GCaMP6s calcium fluorescence; activation, % at 10 µM; 0.15% of 270,000 active; AID 1259423, 2018; in the data active = activation above about 40%;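 also: 0% = vehicle and 100% = reference agonist at the receptor; some compounds past the cut are filed as inactive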
NPYLR7 ag max-min: further read-out of NPYLR7 ag, marked with its call; activation, %; measured here: Max-Min RFU normalised activation; some inactives read as strong as hits;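 span of the calcium signal over five minutes; 0% = vehicle and 100% = native peptide agonist; compound fluorescence can raise it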
Active calls of the source: *. This is a subset; rates above refer to the full screens.

SMILES	NPYLR7 ag	NPYLR7 ag max-min
COc1ccc(CN2CCN(Cc3ccc(C)o3)CC2CCO)c(C)c1C (stereo unspecified)	-6	-6
COc1ccc2oc(C(=O)N(C)CC(=O)Nc3cc(C)on3)c(C)c2c1	1	1
COCc1cc(N2CCN(Cc3ccc4c(c3)OCO4)CC2)nc(SCc2cccc(C(=O)O)c2)n1	9	17
O=[N+]([O-])c1cc(C(F)(F)F)cc([N+](=O)[O-])c1NN=C1CCCCC1	1	-5
Cn1nnnc1SCCNC(=O)c1ccc2oc(Cc3ccccc3)nc2c1	11	9
COCC(=O)N(CCN1CCOCC1)Cc1nccn1Cc1c(C)cc(C)cc1C	5	10
CC(C)c1ccc(CN2CCN(C(=O)CSc3nnc(-c4ccco4)n3C)CC2)cc1	1	23
COC(=O)CCC(=O)N1CCc2ccccc2C1c1ccc(C)cc1 (stereo unspecified)	-10	-11
COc1ccc(CSc2nnc(NC(=O)c3cccc(Br)c3)s2)cc1	3	12
COc1ccccc1N1CCN(C(=O)CN(Cc2ccccc2)c2nc(Cc3ccc(Cl)cc3)ns2)CC1	-4	-6
CCSc1nc2c(s1)c(=O)n(-c1ccc(C)cc1)c(=O)n2CC(=O)N1CCc2ccccc2C1	-4	-6
CNC(=S)N1CCN(S(=O)(=O)c2ccc3ccccc3c2)CC1	0	-2
COCCN1CCCC2(CCN(C(=O)CCc3csc(N)n3)C2)C1=O (stereo unspecified)	-1	-4
O=c1[nH]c(SC/C=C/c2ccccc2)nc2c1cnn2CCO	3	-2
c1ccc(-c2cn3nc(-c4ccccc4)n4c3c2CCCC4)cc1	2	7
O=C(NCCN1CCOCC1)c1coc(CN(CCc2c[nH]c3ccccc23)Cc2cccc(Oc3ccccc3)c2)n1	17	13
O=P(O)(OC(c1ccc(F)cc1)C(F)(F)F)c1ccccc1 (stereo unspecified)	-1	-1
COc1ccc(OC)c(-c2ccc(=O)n(CCNC(=O)C(C)Oc3ccccc3F)n2)c1 (stereo unspecified)	0	8
COCCCN1CCc2nc(SCC(=O)Nc3ccc(Br)cc3)[nH]c(=O)c2C1	-16	-14
CCOCCOc1nc(-c2ccc(C(F)(F)F)cc2)n(-c2ccc(NC(=O)C(C)(C)CCl)cc2)n1	-11	-14
COc1ccc(N2CC(C)Cn3c2nc2c3c(=O)n(CCC(C)C)c(=O)n2C)c(OC)c1 (stereo unspecified)	3	0
CC(C)NC(=S)NN=C1C2CC3CC(C2)CC1C3	-4	-3
C#CCOCC(O)CN(CCOC)Cc1cccc(C)c1 (stereo unspecified)	14	6
Cc1ccsc1[C@@H]1CCN(Cc2c(CO)cnc(C)c2O)C[C@H]1O	7	1
O=C(N=C1N=C2C=CC(I)=CN2Cc2ccccc21)C1CCCCC1	-2	2

Among those listed so far, these contain a furan ring, fused or not:
SMILES	NPYLR7 ag	NPYLR7 ag max-min
COc1ccc(CN2CCN(Cc3ccc(C)o3)CC2CCO)c(C)c1C (stereo unspecified)	-6	-6
COc1ccc2oc(C(=O)N(C)CC(=O)Nc3cc(C)on3)c(C)c2c1	1	1
CC(C)c1ccc(CN2CCN(C(=O)CSc3nnc(-c4ccco4)n3C)CC2)cc1	1	23

Two compounds drawn at random from the list so far:
SMILES	NPYLR7 ag	NPYLR7 ag max-min
O=c1[nH]c(SC/C=C/c2ccccc2)nc2c1cnn2CCO	3	-2
CNC(=S)N1CCN(S(=O)(=O)c2ccc3ccccc3c2)CC1	0	-2

Continuation.
SMILES	NPYLR7 ag	NPYLR7 ag max-min
NC(=O)c1cc2c(ccc3ccccc32)oc1=Nc1ccccc1F	-4	-10
COc1ccc(NC(C)C(=O)NC2CCS(=O)(=O)C2)c(OC)c1 (stereo unspecified)	13	10
CC(=O)CSc1nc2c([nH]c3ccccc32)c(=O)n1-c1cc(C)ccc1C	-6	-5
Cn1cnc(S(=O)(=O)N2C[C@H](Oc3ccccn3)[C@H]3C[C@@H]2Cc2c3oc3ccccc23)c1	22	20
C=CCn1cc(CN2CCc3[nH]cnc3C2Cc2ccccc2)cn1 (stereo unspecified)	0	8
COCCCn1c(-c2cccc(OC)c2)nc2nc3ccccc3nc21	6	-9
N#Cc1c(NC(=O)C2C3C=CC(C3)C2C(=O)O)sc2c1CCCCC2 (stereo unspecified)	9	4
CCN(CC)CCCn1c2c(c(SCC(=O)Nc3ccc(OC)cc3OC)nc1=O)CCC2	0	7
COc1cc(OC)cc(C(=O)Nc2ccc3c(c2)N(S(=O)(=O)c2cccs2)CCC3)c1	15	9
Cc1[nH]cnc1-c1nccn1CCCN1CCCc2ccccc21	5	3
C=CCN(Cc1ccccc1Cl)C(=O)c1cnc(NCC)nc1	-1	-9
O=C(NCC(O)c1cccc(Cl)c1)C1CC=CCC1 (stereo unspecified)	5	4
COc1cc(C=C2N=C(C34CC5CC(CC(C5)C3)C4)OC2=O)cc(OC)c1OC	-2	-3
Cc1c(Cl)cccc1NC(=O)CN1CCCC(CNS(=O)(=O)C(C)C)C1 (stereo unspecified)	-2	-4
CCOC(=O)CC(=O)N1CCC(n2c(C)nc3ccc(C)cc32)CC1	3	-1
CC(C)(C)c1cc2nc(-c3ccccc3)cc(C(=O)N3CCc4ccccc4C3)n2n1	20	17
CC1=C(C(=O)OCc2ccccc2)C(c2ccc3c(c2)OCO3)NC(=O)N1 (stereo unspecified)	-7	-14
CC(=O)CSc1nc2c(c(=O)n(C)c(=O)n2C)n1Cc1ccccc1	6	1
Cc1ccc2nc(SCC(=O)Nc3ccc(F)cc3)nc(=O)n2c1	1	0
Cc1ccc(Cl)c(-n2nnc(C(=O)Nc3ccccc3C#N)c2C)c1	-1	-4
O=C(c1cc(F)ccc1F)C1CCCN(Cc2ccc(-n3cccn3)cc2)C1 (stereo unspecified)	-7	-17
COc1ccc(N2CCN(C(=O)Nc3cccnc3OC)CC2)cc1	-1	-2
CCOC(=O)c1c(C)n(-c2ccc(OC)cc2)c2cc(Br)c(OC)cc12	-7	0
COc1ccc(NC(=O)C(C2CCCC2)N2CCN(C(=O)c3cccc(F)c3)CC2)cc1OC (stereo unspecified)	-3	12
CC(=O)NC1C(Oc2ccc(C(C)=O)cc2)OC(CO)C(O)C1O (stereo unspecified)	3	2
SMILES	NPYLR7 ag	NPYLR7 ag max-min
O=C(CC1C(=O)NCCN1CC1CCCCC1)NCc1ncc[nH]1 (stereo unspecified)	4	6
O=C(NCc1ccc2c(c1)CCCO2)c1cn2c(n1)CNCC2	5	2
COC(=O)c1ccc(CSc2ccc(NC(=O)c3ccc(C)cc3)nn2)o1	-3	-3
Cc1nc(-c2ccc(CC(=O)N3CCOCC3C)cc2)cs1 (stereo unspecified)	12	9
CCCCC(=O)NC1CCN(C(=O)C(Cc2ccccc2)n2cnnn2)CC1 (stereo unspecified)	11	6
CCc1ccc(C2c3cccn3CCCN2Cc2cc(O)ccc2O)cc1 (stereo unspecified)	3	16
COc1ccc2cc(C(=O)N3CCN(C(C#N)c4ccc(F)cc4)CC3)c(C)nc2c1 (stereo unspecified)	1	1
CCOC(=O)CNC(=O)N1CCC2(CC1)NC(=O)c1cccc(C)c1N2	3	14
O=S(=O)(NCCc1cscn1)c1ccc(Cl)s1	3	-1
CCCCc1noc(C(C)SCCn2nc3ccccn3c2=O)n1 (stereo unspecified)	0	-3
CCc1noc(CSC2=Nc3ccccc3CS2)n1	8	7
O=C(NC(=S)N1CCCC1)c1ccc(Cl)cc1Cl	0	40
O=C(c1nc2ccccn2c1CNC(c1ccccc1)c1ccccc1)N1CCCC1	-23	-25
CCCC1COCCN1Cc1ccc(NC(C)=O)cc1 (stereo unspecified)	5	3
CCCC(CCC)C(=O)OC1C[C@H]2CC[C@@H](C1)[N+]2(C)C (stereo partly specified)	-5	-6
C#CCn1c(CCCO)nc2ccccc21	1	8
CN(CC(=O)NC(C)(C)C)C(=O)NC1CC1	-1	-2
CN=c1scc(-c2cc(OC)ccc2OC)n1N=Cc1c(OC)cc(OC)cc1OC	-5	-11
O=C(C1CCNCC1)N1CCOCC1	1	9
CCOC(=O)c1[nH]c(C)c(C(=O)OCC(=O)c2ccccc2)c1C	7	5
Cc1ccccc1NC(=O)c1c(NC(=O)c2ccc([N+](=O)[O-])cc2)sc2c1CCCC2	6	7
CCCN=C(NC(=O)c1ccc(OC)cc1)OCCOC	-4	3
O=C(CN1CCN(Cc2ccco2)CC1)Nc1ccc(Cl)cc1	-18	-18
Cc1noc(C)c1CNCc1cc(Cl)cc(Cl)c1O	4	2
CCn1nnc2c(N3CCN(C(=O)OC)CC3)ncnc21	1	19
SMILES	NPYLR7 ag	NPYLR7 ag max-min
COc1cc(CN2CCCN(c3nc(C)c4cc(C)c(C)cc4n3)CC2)ccc1F	26	12
CCCN(C(=O)c1ccc2c(c1)nnn2CC)C1CCS(=O)(=O)C1 (stereo unspecified)	-7	-5
C(=Cc1ccccc1)C=NNc1nc2ccccc2[nH]1	9	6
O=C1NC2=C(C(=O)c3ccccc32)C(c2ccc(Cl)cc2)S1 (stereo unspecified)	7	8
O=C(C1=C(O)C(=O)N(CCN2CCOCC2)C1c1cccc(Br)c1)c1ccco1 (stereo unspecified)	13	16
N#Cc1c(Cn2ncc(Cl)c(Cl)c2=O)cn2ccccc12	1	-2
COc1ccc(C2Oc3ccc4ccccc4c3C=C2[N+](=O)[O-])cc1OC (stereo unspecified)	1	-3
CO[C@H]1[C@H](NC(=O)c2ccncc2)c2ccccc2C12CCN(C(=O)CCc1scnc1C)CC2	-7	-11
C=CCn1c(=NC(=O)C2=COCCO2)sc2cc(C(=O)OCC)ccc21	2	-1
Cc1cccnc1-c1ccc2c(c1)CC(CNC(=O)/C=C/c1ccc(F)cc1F)O2 (stereo unspecified)	6	4
CC(C(=O)N(C)CCC(C)(C)O)n1cc(Cl)cn1 (stereo unspecified)	4	0
CSC1CCCCC1(O)CSc1nc2ccccc2o1 (stereo unspecified)	12	7
COC(=O)c1ccc(N=C2SC(C(=O)O)CC(=O)N2C)cc1 (stereo unspecified)	0	-1
CNc1ccccc1C(=O)OC(C)C(=O)NC1CCCC1 (stereo unspecified)	4	1
CCc1cc(-c2[nH]ncc2-c2ccc3c(c2)OCCO3)c(O)cc1O	-1	-2
Cc1cc(N2CCN(C(=O)Nc3ccc(-n4cncn4)nc3)CC2)nc(C(C)C)n1	14	6
Nc1cc(S(=O)(=O)Nc2ccc(Br)cc2)ccc1Cl	7	5
CC(C)N(CC(=O)N1CC(=O)N(c2ccc(Cl)cc2)C1)S(=O)(=O)c1cccc2cccnc12	-10	-6
CCCN(CC(=O)N(CCc1ccc(OC)c(OC)c1)Cc1ccc(C)s1)C(=O)Nc1cccc(OC)c1	-2	-13
Cc1cccn2c(=O)c(C(=O)NCCCN3CCOCC3)c(O)nc12	-1	4
COCCNC(=O)c1ccc(CSc2nnc(-c3ccc([N+](=O)[O-])cc3)n2Cc2ccccc2)cc1	23	35
Cc1ccc(F)cc1S(=O)(=O)N1CCC(Cc2ccc3c(c2)OCO3)CC1	13	-6
Cc1nc(-c2cc(C(=O)NCC(=O)NC(C)C)n(C)c2)cs1	0	-2
O=C(c1ccccc1F)N(Cc1nccn1Cc1ccccc1Cl)CC1CC1	6	7
CN(C)Cc1nnnn1-c1ccc(-n2nnnc2CN(C)C)cc1	10	5

Whole records, looked up by structure.
CC(C(=O)N(C)CCC(C)(C)O)n1cc(Cl)cn1 (stereo unspecified) in the list: NPYLR7 ag: 4; NPYLR7 ag max-min: 0
Cc1nc(-c2cc(C(=O)NCC(=O)NC(C)C)n(C)c2)cs1 in the list: NPYLR7 ag: 0; NPYLR7 ag max-min: -2
Cc1cc(N2CCN(C(=O)Nc3ccc(-n4cncn4)nc3)CC2)nc(C(C)C)n1 in the list: NPYLR7 ag: 14; NPYLR7 ag max-min: 6

The results go on:
SMILES	NPYLR7 ag	NPYLR7 ag max-min
CCCOC(=NC(C)CCCN(CC)CC)NC(=O)c1cccc(C)c1 (stereo unspecified)	-7	-14
COc1ccccc1-n1ncc2c(C)nnc(SCC(=O)NCc3ccc4c(c3)OCO4)c21	-7	-13
CCOC(=O)C1=NN(C(=O)c2ccc(Cl)cc2)C(O)(c2ccc(C)cc2)C1 (stereo unspecified)	-4	-5
COc1cc(OC)c(Br)c(-n2c(C(C)N(CCC(C)C)C(=O)Nc3c(C)cccc3C)nc3ccccc3c2=O)c1 (stereo unspecified)	19	14
COCCn1c(SCc2ccccc2)nc2c([nH]c3ccccc32)c1=O	-2	-2
CCC(C(=O)Nc1ccccc1C1SCC(=O)N1c1ccccc1C(C)C)c1ccccc1 (stereo unspecified)	3	11
O=C(Nc1cccc(Cn2ccnc2)c1)c1csc(Br)c1	-1	-3
CC(C)Cn1cncc1CNc1nc(CCN)nc2ccccc12	19	15
O=C(COc1cc(Cl)ccc1Cl)N(CC1CCCO1)C1CCS(=O)(=O)C1 (stereo unspecified)	0	-1
CNc1ccc2ncc(-c3cc(OC)ccc3OC)n2n1	-1	-1
Cc1cc(C)nc(Cl)n1	-3	0
CC(C)n1nccc1-c1nnc(NC(=O)c2ccco2)o1	6	4
COCc1nc(NC(c2ncc(C)s2)C2CC2)c2c(-c3ccccc3)csc2n1 (stereo unspecified)	3	11
O=c1[nH]c(C(Cl)=Cc2ccc(F)cc2)nc2cc(C(F)(F)F)ccc12	8	2
O=C(Nc1ccc(N2CCN(C(=O)c3ccoc3)CC2)nc1)c1ccco1	-1	4

By substructure, the compounds so far containing a cyano group.
SMILES	NPYLR7 ag	NPYLR7 ag max-min
N#Cc1c(NC(=O)C2C3C=CC(C3)C2C(=O)O)sc2c1CCCCC2 (stereo unspecified)	9	4
Cc1ccc(Cl)c(-n2nnc(C(=O)Nc3ccccc3C#N)c2C)c1	-1	-4
COc1ccc2cc(C(=O)N3CCN(C(C#N)c4ccc(F)cc4)CC3)c(C)nc2c1 (stereo unspecified)	1	1
N#Cc1c(Cn2ncc(Cl)c(Cl)c2=O)cn2ccccc12	1	-2
